Mtb hypoxia rep: inhibitors of hypoxia-regulated fluorescent reporter in Mycobacterium tuberculosis | M. tuberculosis hypoxia-regulated fluorescent reporter, fluorescence | fluorescence inhibition, % (concentration not given with the values) | 0.1% of 300,000 active | AID 1159583;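 active = 35 to 45% if threefold the growth effect, above 45% if 1.5-fold the growth effect; inactive = the rest, general growth blockers included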;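 note: wells of about 50 µL received 100 nL stock; 0% = vehicle wells and 100% = reference inhibitor wells; whole bacteria with a GFP reporter of the hypoxia response; strong numbers were not always called active; many hits fall short of the cut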
PrP UTR inh: suppresses PrP 5' UTR mRNA reporter expression | cell-based PrP 5' UTR mRNA reporter, plate reader | inhibition, % (no concentration beside the values) | 0.35% of 340,000 active | AID 488862;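 active = every replicate at 50% or more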;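 note: 0 = median of the neutral control wells; tested in H4 reporter cells; numbers are from one replicate; inactives centre near -14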
Bead autofluor: compound fluorescence in toxin protease inhibitor counterscreen; 3.1% of 360,000 active; fluorescence intensity (test concentration not listed); compound autofluorescence counterscreen, microsphere flow cytometry; active compounds read high;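 active = at least 3 SD above the mean of all compounds, about 16000 in these data; inconclusive = too few beads counted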;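 note: 100 nL of 1 mM stock went into each well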
Sa ugtP lethal: growth inhibition of S. aureus ugtP deletion strain. S. aureus RN4220 ugtP deletion, OD600 growth, 16 h; some inactives read as strong as hits. growth inhibition, % (test concentration not listed). 0.54% of 330,000 active;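 active = z-score under -3 and OD600 up to 0.15 on both plates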;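 note: plate controls were untreated wells for no effect and antibiotic for full effect; wells of about 80 µL received 100 nL stock; the first replicate is given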
BJeLR viability: BJeLR cell viability loss; BJeLR (HRASV12) viability, CellTiter-Glo ATP luminescence, 48 h; reference of the scale not given here; 0.17% of 300,000 active; inhibition, % (concentration not given with the values);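 active = replicate mean above 50%; inconclusive = above 50% but judged a plate artefact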;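 note: 50 nL library stock added to about 25 µL; numbers are from one replicate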
RN4220 kill: S. aureus RN4220 growth inhibition; inhibition, % (no concentration beside the values); 0.33% of 330,000 active; OD600, 16 h;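 active = z-score of -3 or lower and OD600 up to 0.18 on both plates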;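 note: plate controls were untreated cells for no effect and reference antibiotic for full effect; stock transfer was 100 nL into about 80 µL; one replicate is shown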
Mtb hypoxia rep growth: recorded beside Mtb hypoxia rep, whose call it bears; growth inhibition, %; measured here: M. tuberculosis growth (absorbance);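 0% = vehicle and 100% = reference antibiotic; read after six days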
Numbers without * were called inactive; ? = inconclusive; nt = no result given.

SMILES	Mtb hypoxia rep	Mtb hypoxia rep growth	PrP UTR inh	Bead autofluor	Sa ugtP lethal	BJeLR viability	RN4220 kill
O=c1[nH]c(=S)n(-c2ccccc2F)c(O)c1C=Nc1ccc(N2CCOCC2)cc1	7.7	3.2	-20.6	2752	7.1	-6.2	5.2
COc1ccc(C(c2c[nH]c3ccccc23)c2c[nH]c3ccccc23)cc1O	nt	nt	9.5	5856	nt	6.6	nt
O=C1CC(c2ccc(Cl)cc2)CC(O)=C1C=NCc1ccc(Cl)c(Cl)c1 (stereo not given)	3.1	7.6	-35.3	4498	-11.8	-6.0	7.6
CCCCCCC(C)OC(=O)Nc1cccc2ccccc12 (stereo not given)	nt	nt	-30.8	4038	nt	1.0	nt
O=C1CCCC(=NNC(=O)c2ccc(CN3c4cccc5cccc(c45)S3(=O)=O)cc2)C1	7.2	8.3	nt	nt	-9.1	nt	10.0
COc1cc(C(=O)NC(C)c2cnn(-c3ccccc3C)c2C)cc(OC)c1OC (stereo not given)	12.0	5.0	-56.2	2560	7.8	-3.7	3.4
C/C(CC(=O)NC1CCCCC1)=N\NC(=O)c1ccccn1	nt	nt	1.5	1945	nt	-1.1	nt
O=C(NC1CCCCC1)C(c1ccc(F)cc1)N(Cc1ccco1)C(=O)c1csnn1 (stereo not given)	12.1	1.0	-11.5	4853	19.9	-3.6	4.5
COc1ccc(C)cc1NC(=O)CSc1nnc2ccc(-c3ccccn3)nn12	5.2	-7.4	-9.4	4199	4.2	-12.7	2.6
Cc1sc(N)nc1-c1ccc2c(c1)OCCO2	4.6	-7.9	-42.2	3627	6.4	-7.2	3.2
CC(=O)Nc1ccc(NC(=O)CSc2nc(N)c(NC(=O)c3ccco3)c(=O)[nH]2)cc1	16.1	2.0	3.9	4369	2.5	14.3	2.0
COc1ccc2[nH]c(C(=O)O)c(NC(=O)c3ccccc3[N+](=O)[O-])c2c1	17.6	8.8	-14.6	3455	-0.5	3.5	4.4
COc1ccc(CCNC(=O)C(=O)NCc2cccs2)cc1OC	6.4	-0.5	-20.2	4812	9.0	nt	-0.7
CC(C)n1cc(NC(=O)COc2ccccc2Cl)cn1	3.3	10.1	-13.0	3684	2.1	-1.4	2.8
O=C(CCS(=O)(=O)c1ccc(F)cc1)Nc1nnc(-c2cccs2)o1	18.9	4.4	-1.0	4197	0.5	-5.5	3.0
O=C(c1ccncc1)N1CCN(S(=O)(=O)c2cccc(C(F)(F)F)c2)CC1	11.9	0.7	nt	nt	5.3	nt	9.6
NC(=O)C1(N2CCCCC2)CCN(S(=O)(=O)c2ccccc2)CC1	7.1	7.3	-9.9	4694	-5.5	1.0	3.5
O=C(N/N=C/c1cccc2ccccc12)C(=O)N1CCCC1	nt	nt	-4.4	3638	nt	-1.9	nt
COc1cccc(OCc2cc(C(=O)N3CCN(C4CCCCC4)C(=O)C3)no2)c1	1.9	5.8	-23.7	5396	-2.6	4.4	-0.3
CC(C)c1cc(-c2cc(C(=O)NCc3ccccc3)on2)nc(NCC2CC2)n1	-2.7	2.7	-14.2	3070	-4.4	2.5	-12.8
Cc1ccccc1CNC(=O)c1ccc(CSCc2ccccc2)cc1	5.4	6.8	-4.0	2854	10.7	5.8	-8.0
CCOC(=O)Cn1cnc2c(nnn2-c2cccc(OC)c2)c1=O	4.1	5.6	-2.9	2962	1.9	-2.1	-0.1
CC1(C)C2CCC(C2)C1(C)NC(=O)CNCC1CCCCC1 (stereo not given)	nt	nt	-16.0	2350	nt	-0.1	nt
Cc1cc(C)n(CCN(C)C(=O)C2CCC(=O)N(CCN3CCOCC3)C2)n1 (stereo not given)	-1.0	0.0	-6.3	6516	-1.8	-4.2	-1.2
COc1ccccc1N(CC(=O)NC1CCCCC1C)S(=O)(=O)c1cccs1 (stereo not given)	0.9	8.0	-8.3	3496	-1.4	nt	5.5

Later entries:
SMILES	Mtb hypoxia rep	Mtb hypoxia rep growth	PrP UTR inh	Bead autofluor	Sa ugtP lethal	BJeLR viability	RN4220 kill
COC(=O)CSc1nnc(-c2cnccn2)n1C	5.0	6.4	-32.4	11461	-1.2	4.4	4.0
CCOc1ccc(C=NNC(=O)CN2CCSCC2)cc1	-4.3	-2.6	nt	nt	5.4	nt	2.4
C=CCOc1ccccc1CN1CCN(CCc2ccccc2)C(CCO)C1 (stereo not given)	10.6	19.0	-26.3	3612	17.6	9.2	5.2
COc1cc(Cl)c(CNC[C@H]2O[C@@H](n3cnc4c(N)ncnc43)[C@H](O)[C@@H]2O)c(Cl)c1O	-5.4	-2.2	-19.8	3098	3.7	nt	3.5
COc1ccccc1CNc1nc(S(=O)(=O)c2ccccc2)c(Cl)s1	15.1	3.0	-28.2	9214	17.1	-5.4	10.4
COc1ccc(CNC(=O)CN(CC2CCCO2)C(=O)CNS(=O)(=O)c2ccccc2)cc1 (stereo not given)	nt	nt	-9.6	4076	4.4	0.2	2.1
COc1ccccc1CC(=O)N1CCN(c2ccccn2)CC1	12.0	-1.4	-3.7	3209	3.6	-13.9	6.6
O=C(c1ccc2c(c1)ncn2C1CCCCC1)N1CCC2(CC1)OCCO2	-1.7	5.1	nt	nt	5.7	27.1	7.4
O=C(CN1N=C(C(F)(F)F)CC1(O)c1ccc([N+](=O)[O-])cc1)c1ccccc1 (stereo not given)	7.2	-6.9	-13.8	4570	-16.1	-1.8	3.4
O=C(c1ccc(O)cc1)c1ccc(C(=O)c2ccc(O)cc2)cc1	-12.3	4.2	-24.6	9646	-10.0	7.9	3.0
CCC(=O)Nc1ccc(C(=O)NCCCn2ccnc2)cc1	-5.9	2.9	-16.6	2503	-1.0	-0.4	-2.3
COc1ccc(-c2csc(Nc3ncccc3C)n2)cc1	6.2	16.9	-135.5	3308	8.3	1.3	5.4
CCn1c(=S)[nH]c2scc(-c3cccs3)c2c1=O	25.3	14.7	-11.3	9536	62.6	3.1	61.0
O=C(CNC(=O)c1ccc(Cl)cc1Cl)OCC(=O)N1CCN(c2ccccc2)CC1	6.9	5.4	-4.4	4575	8.6	-3.7	3.0
Cc1nc2ccc(-c3nc4ccccc4o3)cc2[nH]1	7.6	7.6	-72.3	3064	13.0	-2.5	7.2
C=CCOC(=O)c1c(C)nc2cc3c(cc2c1C)OCO3	9.9	-3.1	-13.3	2240	0.4	-3.8	8.3
COC(=O)C1CSC(C(=O)OC)N1C(=O)Nc1ccc(Cl)cc1 (stereo not given)	nt	nt	-10.0	2134	-0.2	7.3	2.1
CC1CC(C)C[N+](=C2C=C(N3CCCC3)CC(C)(C)C2)C1 (stereo not given)	21.3	23.8	-21.1	3447	4.1	17.3	-0.8
COc1ccc2oc(C(=O)OCC(=O)NCc3ccc(OC)c(OC)c3)c(C)c2c1	1.8	0.0	-26.3	5980	4.2	nt	1.6
Cc1cc(C(=O)Nc2ccncc2)c2ccccc2n1	7.7	2.9	-14.2	5631	7.4	1.0	0.9
Cc1cc(NC(=O)CS(=O)(=O)c2c[nH]c3ccccc23)no1	8.3	9.2	-13.4	5722	2.2	16.9	1.2
CN(C)c1ccc(CN(C(=O)c2ccc(Cl)c([N+](=O)[O-])c2)C2CCS(=O)(=O)C2)cc1 (stereo not given)	19.2	16.9	-22.0	5288	4.1	-6.8	1.5
Cc1ccc(OCC(=O)N(Cc2ccccc2)c2ccccn2)cc1	-7.9	2.9	-20.1	4375	-7.8	-0.6	0.9
O=C(COc1cccc(-n2cnnn2)c1)Nc1ccc([N+](=O)[O-])cc1	6.8	4.1	-10.1	6126	3.3	0.8	0.7
O=C(CNC(=O)c1ccccc1)NCC(=O)OCc1ccccc1Cl	1.6	6.8	-30.8	4893	-3.3	0.4	4.1

The results go on:
SMILES	Mtb hypoxia rep	Mtb hypoxia rep growth	PrP UTR inh	Bead autofluor	Sa ugtP lethal	BJeLR viability	RN4220 kill
Cn1c(N)c(C#N)c(C#N)c1-c1ccccc1	nt	nt	-18.7	2684	-7.5	nt	0.3
Cc1c(N2C(=O)C(C)SC23C(=O)Nc2ccccc23)c(=O)n(-c2ccccc2)n1C (stereo not given)	3.1	3.4	-5.6	10009	3.6	1.9	4.9
CSc1ncccc1C(=O)N(C)CC(=O)Nc1cccc(F)c1	7.3	-5.3	-5.3	nt	3.5	-13.1	2.2
COc1ccc(-c2csc3ncnc(N4CCN(S(=O)(=O)c5ccc(C)cc5)CC4)c23)cc1	4.0	2.4	-24.9	?	-11.9	1.9	1.6
COc1cc(C(=O)N=c2sc3c(C)ccc(OC)c3n2C)cc(OC)c1OC	-6.2	2.5	-74.6	4947	16.2	3.3	14.9
Cc1cccc(N2CCN(C(=O)CN3C(=O)NC4(CCCCCC4)C3=O)CC2)c1C	4.9	-3.0	-25.1	?	7.1	nt	1.9
CC[C@H](C)[C@H](NC(N)=O)C(=O)NNC(=O)c1ccc(COc2cccc3cccnc23)cc1	-7.6	-3.8	-22.1	3820	-4.3	-7.3	-4.4
CCCCc1ccc(C2C3=C(CC(C)(C)CC3=O)NC3=C2C(=O)c2ccccc23)cc1 (stereo not given)	-2.5	15.6	-9.4	7808	-11.3	-3.6	-4.0
O=C(Nc1ccc(F)cc1)c1cc2cc(Cl)ccc2[nH]1	12.5	0.6	-28.1	3899	-4.0	5.9	-0.6
CN(C[C@@H](CC1CCCCC1)N(C[C@H](Cc1ccccc1)N(CCc1ccccc1)N=O)N=O)N=O	nt	nt	-10.2	5114	nt	-15.9	nt
N#Cc1cccc(NC(=O)Cn2cnc(S(=O)(=O)N3CCOCC3)c2)c1	5.2	2.9	-24.1	5418	1.9	2.3	1.2
[O-]C1=N[N+](=C(c2ccccc2)c2ccccc2)C1	2.3	0.0	0.4	3974	-4.5	nt	6.1
COc1ccc(C2NCCn3cccc32)cc1 (stereo not given)	nt	nt	-10.5	5092	4.8	18.9	1.8
CN(CCC#N)C(=O)COC(=O)c1c2c(nc3ccccc13)/C(=C/c1ccco1)CC2	nt	nt	-46.8	2237	nt	9.0	nt
O=C(CC1C(=O)NCCN1Cc1c(F)cccc1Cl)NCCCn1ccnc1 (stereo not given)	-7.6	-1.7	-2.8	2243	10.0	8.1	6.4
C/C(=C\C(=O)c1ccccc1)Nc1ccc2c(c1)OCO2	nt	nt	-123.5	2486	nt	3.2	nt
CC1CCN(C(=O)COC(=O)C2CCN(S(=O)(=O)c3c(Cl)cccc3Cl)CC2)CC1	7.1	5.9	-6.1	nt	10.8	nt	5.1
CC1CCN(C(=O)CN2C(=O)C(=O)N(C)C2=O)c2ccccc2S1 (stereo not given)	5.7	10.9	-19.1	5020	-1.1	nt	-1.9
COc1ccc(C(=O)C2CCCN(Cc3cccn3-c3nccs3)C2)cc1F (stereo not given)	10.0	8.0	-15.3	4116	7.6	9.3	3.6
NC(=NOC(=O)C(c1ccccc1)c1ccccc1)c1ccccn1	11.0	6.7	nt	nt	0.0	nt	1.4
COc1ccccc1/C=C1/C(=O)N(c2ccc([N+](=O)[O-])cc2)N=C1C	3.7	-4.5	1.4	2972	2.2	-0.8	2.7
COc1ccc(CNC(=O)CSc2ncnc3ccccc23)cc1OC	1.8	0.0	-14.7	4447	-0.5	-7.7	7.4
COc1ccc(-c2cn(Cc3ccc(C(=O)c4ccccc4)cc3)nn2)cc1	-1.6	-1.1	nt	nt	-5.5	-3.7	-3.0
CCCN(CC(=O)Nc1ccc(F)c(F)c1F)C(=O)Cc1ccc(S(=O)(=O)N2CCOCC2)s1	1.8	-1.3	7.0	4863	0.3	nt	2.6
CC(C)CC(=O)NC(C(=O)NC(C(=O)NC(CC(C)C)C(O)CC(=O)NC(C)C(=O)NC(CC(C)C)C(O)CC(=O)O)C(C)C)C(C)C (stereo not given)	4.6	4.9	nt	nt	-4.6	nt	5.0
O=C(NCc1ccc(Cl)cc1)c1ccc(CSc2nc3ccncc3[nH]2)cc1	4.4	5.4	13.8	5084	1.6	-15.6	-2.2
CCCNC(=S)N1CCC(NC(=O)C2CCCCC2)CC1	8.3	6.4	-17.9	2997	3.2	-0.6	2.1

3 structures already listed, ordered by length of the SMILES, ascending:
SMILES	Mtb hypoxia rep	Mtb hypoxia rep growth	PrP UTR inh	Bead autofluor	Sa ugtP lethal	BJeLR viability	RN4220 kill
COc1ccc(C2NCCn3cccc32)cc1 (stereo not given)	nt	nt	-10.5	5092	4.8	18.9	1.8
COc1cc(C(=O)N=c2sc3c(C)ccc(OC)c3n2C)cc(OC)c1OC	-6.2	2.5	-74.6	4947	16.2	3.3	14.9
COc1ccccc1/C=C1/C(=O)N(c2ccc([N+](=O)[O-])cc2)N=C1C	3.7	-4.5	1.4	2972	2.2	-0.8	2.7

Screens from PubChem.

Rows were taken by chance. About 4% of those tested had a hit in this group.
